# Screening results from PubChem BioAssay.
# FGF22 binding: binders of human FGF22 protein, primary screen, FGF22 synaptogenesis inhibitor project, biophysical, thermal shift, single point | Fibroblast growth factor 22 (Homo sapiens), Q9HCT0 | recombinant FGF22 thermal shift, SYPRO orange fluorescence; percent of sucrose octasulfate shift, DMSO zero | calls only at 9.99 µM | 340,000 compounds, 1.5% hits | AID 651658, 2012;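 active = melting point raised past a set limit in the mean and every replicate; inconclusive = no clear call; three in four hits are not shown here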
# Target sequence (Q9HCT0 whole entry, looked up): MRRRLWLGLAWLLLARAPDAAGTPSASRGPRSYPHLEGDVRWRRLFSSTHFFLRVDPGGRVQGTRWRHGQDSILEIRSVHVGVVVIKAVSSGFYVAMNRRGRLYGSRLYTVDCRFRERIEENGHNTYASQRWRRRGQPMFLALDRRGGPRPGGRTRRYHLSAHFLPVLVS
# MLL AF4-AF9 inh: inhibitors of AF4 peptide binding to AF9, primary screen, biochemical, AlphaScreen, biotin-AF4 peptide, FLAG-AF9, single point. inhibition, % at 10 µM. 350,000 compounds, 0.47% hits. AID 651704, 2012;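 active = every replicate reaching a set inhibition limit, whatever the replicate mean, cut at about 25% in these data; inconclusive = mean inhibition reaches that limit but some replicates miss it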;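 note: 0% = plate neutral control median and 100% = total signal loss; the record names both 10 and 1 µM as test concentration; the first replicate is given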
# Target sequence (P42568 whole entry, looked up): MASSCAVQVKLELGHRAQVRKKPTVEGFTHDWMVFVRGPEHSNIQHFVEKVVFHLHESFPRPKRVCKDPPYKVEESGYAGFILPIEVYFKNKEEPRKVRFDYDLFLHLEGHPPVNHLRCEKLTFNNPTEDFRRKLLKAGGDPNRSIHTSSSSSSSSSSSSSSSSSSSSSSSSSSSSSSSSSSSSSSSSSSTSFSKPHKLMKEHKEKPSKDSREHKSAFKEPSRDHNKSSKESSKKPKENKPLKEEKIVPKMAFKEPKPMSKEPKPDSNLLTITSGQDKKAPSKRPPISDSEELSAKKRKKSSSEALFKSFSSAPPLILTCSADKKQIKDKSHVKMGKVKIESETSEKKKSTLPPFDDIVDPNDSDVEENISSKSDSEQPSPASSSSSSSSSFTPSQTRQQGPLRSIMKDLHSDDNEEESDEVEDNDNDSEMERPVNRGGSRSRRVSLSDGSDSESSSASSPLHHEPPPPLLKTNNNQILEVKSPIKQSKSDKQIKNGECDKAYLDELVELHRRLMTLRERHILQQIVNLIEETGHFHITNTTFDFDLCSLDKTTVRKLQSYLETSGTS
# rRNA inh HTS: reduced GFP signal of wild-type E. coli, primary screen, bacterial rRNA inhibitor project, GFP/RFP fluorescence, OD600, single point. E. coli WT GFP vs humanized-ribosome RFP mutants, 24 h; hits give low values; DMSO median 0, no signal -100. GFP signal change (wild-type ribosome), % (no concentration beside the values). 350,000 compounds, 1.6% hits;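 active = significant combined selectivity score with lowered wild-type GFP, culture density cut under 30%, mutant RFP and density less affected; inactive = any of these conditions unmet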; note: one replicate is shown; some compounds called inactive have numbers as strong as hits
# rRNA inh HTS OD600: recorded beside rRNA inh HTS, whose call it bears; OD600 change, %; measured here: OD600 growth;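 optical density of the mix in the first replicate; 0 = DMSO median and -100 = no signal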
# rRNA inh HTS RFP: recorded beside rRNA inh HTS, whose call it bears; RFP signal change, %; measured here: RFP humanized mutant strains;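 first replicate; 0 = DMSO median and -100 = no signal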
# * = called active by the depositor; i = inactive; ? = inconclusive; + = active, no number; & = joins results of further samples. These rows are one share of the data; the hit share may differ from the screen's.
SMILES,FGF22 binding,MLL AF4-AF9 inh,rRNA inh HTS,rRNA inh HTS OD600,rRNA inh HTS RFP
CCCNC(=O)N1CCC2(CC1)CN(C(=O)Nc1ccc(F)cc1)[C@H](CO)c1[nH]c3cc(OC)ccc3c12,i,2.1,-7,-2,3.3
COC(=O)C(C(=O)OC)C1C=CCN(C(C)=O)C1 (centres undefined),i,-1.1,7,11,1.1
COc1ccc(-c2ccc([C@H]3[C@H](C#N)N(C(=O)NC4CCCCC4)[C@H]3CO)cc2)cc1,i,-0.7,0,-2,0.0
COCCNC(=O)c1cc2c(c(-c3cccc(-c4cccc(F)c4)c3)n1)[C@@H](CCO)N([S@](=O)C(C)(C)C)C2,i,-2.7,-3,-16,27
C[C@@H]1CCCCO[C@@H](CN(C)Cc2ccccc2)[C@H](C)CN([C@H](C)CO)C(=O)c2cc(NC(=O)Nc3ccc(C(F)(F)F)cc3)ccc2O1,i,-1.4,-5,-1,-5.7
C[C@@H]1CN([C@@H](C)CO)S(=O)(=O)c2ccc(-c3cccc(F)c3)cc2O[C@@H]1CN(C)S(=O)(=O)c1ccccc1,i,-0.3,0,-1,0.5
CO[C@@H]1CN(C)C(=O)c2ccc(NC(=O)NC(C)C)cc2OC[C@H](C)N(C)C[C@@H]1C,i,1.2,1,5,-0.6
Cc1cc(F)ccc1-c1cc(C(=O)N2CCN(c3ccncc3)CC2)[nH]n1,i,0.7,17,27,0.7
O=C(C[C@@H]1C[C@@H]2c3cc(NS(=O)(=O)c4ccc(F)cc4)ccc3O[C@@H]2[C@@H](CO)O1)N1CCCCC1,i,0.8,-5,-14,1.8
C[C@H]1CN([C@@H](C)CO)C(=O)c2cc(NS(=O)(=O)c3ccc(Cl)cc3)ccc2O[C@@H]1CN(C)CC1CC1,i,3.9,3,10,-2.7
COc1ccc(NC(=O)Nc2ccc3c(c2)C(=O)N([C@@H](C)CO)C[C@@H](C)[C@H](CN(C)Cc2ccncc2)OCCCC[C@H](C)O3)cc1,i,0.1,-3,2,0.3
Oc1ccccc1C=NN=Cc1c(O)ccc2ccccc12,i,-1.5,3,3,3.5
COc1ccc(S(=O)(=O)Nc2ccc3c(c2)OC[C@H](C)NC[C@H](C)[C@H](OC)CN(C)C3=O)cc1,i,-3.9,-2,1,1.0
CC1(c2ccc3c(c2)OCCCO3)NC(=O)N(CC(=O)NCCc2ccc(F)cc2)C1=O (centres undefined),i,0.7,-1,-2,0.5
CN(C)C(=O)C[C@@H]1C=C[C@@H](NC(=O)C2CCC2)[C@@H](CO)O1,i,0.5&-1.9,5&13,1&8,-0.4&4.9
O=C(C[C@@H]1C[C@@H]2c3cc(NC(=O)CC4CC4)ccc3O[C@@H]2[C@@H](CO)O1)NCCN1CCCCC1,i,-1.1,2,2,-0.9
O=C(CCN1CCCCC1)N[C@H]1CC[C@H](CCNS(=O)(=O)c2ccc(Cl)cc2)O[C@@H]1CO,i,1.3,-5,-7,5.0
COc1ccc(CNC(=O)C[C@H]2C=C[C@@H](NC(=O)CN(C)C)[C@H](CO)O2)cc1,i,-0.6,2,-3,-0.1
COC(=O)[C@@]1(Cc2ccc(F)cc2)[C@H]2c3cc(C(=O)N(C)C)n(CCF)c3C[C@H]2CN1C(=O)c1ccccc1,i,7.5,-3,-3,0.1
C[C@H]1CN([C@@H](C)CO)C(=O)c2cc(Br)cnc2O[C@H]1CN(C)C(=O)c1ccccc1,i,-2.9,-1,2,-3.8
CC1(O)CC2CC1C(C(=O)O)C2C(=O)O (centres undefined),i,-2.7,7,22,-4.6
O=C(CSc1ccc(F)cc1)NC(=O)c1ccccc1,i,-1.3,5,4,0.6
N#C[C@@H]1N[C@H](CO)[C@H]1c1ccc(C#CC2CCCCC2)cc1,i,1.5,5,-18,-1.2
COc1cc(C2C(c3ccccc3)C(c3cc(OC)cc(=O)o3)C2c2ccccc2)oc(=O)c1 (centres undefined),i,6.9,-13,-15,3.8
CCC(=O)N1[C@H](CO)[C@H](c2ccccc2)C12CN(C(=O)Nc1ccccc1F)C2,i,-6.7,-3,-5,-1.2

# Ordered by value in rRNA inh HTS (falling): some entries from above
mol,rRNA inh HTS
Oc1ccccc1C=NN=Cc1c(O)ccc2ccccc12,3
O=C(C[C@@H]1C[C@@H]2c3cc(NC(=O)CC4CC4)ccc3O[C@@H]2[C@@H](CO)O1)NCCN1CCCCC1,2
COCCNC(=O)c1cc2c(c(-c3cccc(-c4cccc(F)c4)c3)n1)[C@@H](CCO)N([S@](=O)C(C)(C)C)C2,-3

# Record cards (already shown). Order of values: FGF22 binding | MLL AF4-AF9 inh | rRNA inh HTS | rRNA inh HTS OD600 | rRNA inh HTS RFP
# Entry for COc1ccc(-c2ccc([C@H]3[C@H](C#N)N(C(=O)NC4CCCCC4)[C@H]3CO)cc2)cc1 → i | -0.7 | 0 | -2 | 0.0
# Entry for COCCNC(=O)c1cc2c(c(-c3cccc(-c4cccc(F)c4)c3)n1)[C@@H](CCO)N([S@](=O)C(C)(C)C)C2 → i | -2.7 | -3 | -16 | 27
# Entry for CCCNC(=O)N1CCC2(CC1)CN(C(=O)Nc1ccc(F)cc1)[C@H](CO)c1[nH]c3cc(OC)ccc3c12 → i | 2.1 | -7 | -2 | 3.3

# The list goes on:
SMILES,FGF22 binding,MLL AF4-AF9 inh,rRNA inh HTS,rRNA inh HTS OD600,rRNA inh HTS RFP
C[C@H](CO)N1C[C@H](C)[C@H](CN(C)CC2CCCCC2)OCCCC[C@H](C)Oc2ccc(NS(=O)(=O)c3ccc(F)cc3)cc2C1=O,i,5.9,2,-18,18
COc1ccc(CN(C)C[C@@H]2Oc3c(NS(=O)(=O)c4ccccc4)cccc3C(=O)N([C@H](C)CO)C[C@@H]2C)cc1,i,-2.1,2,5,-1.2
O=C(O)c1cccc2c1-c1ccc([N+](=O)[O-])cc1C2=O,i,0.9,-19*,-2.6*,-2.6*
CO[C@H]1CN(C)C(=O)c2cc(NC(=O)C3CC3)ccc2OC[C@@H](C)N(CC2CCCC2)C[C@@H]1C,i,0.9,-3,-13,-0.6
CC(C)CC#Cc1cnc2c(c1)C(=O)N([C@H](C)CO)C[C@H](C)[C@@H](CN(C)Cc1cncnc1)O2,i,1.6,0,0,2.3
C[C@@H]1CCCCO[C@H](CN(C)C(=O)Nc2ccc3c(c2)OCO3)[C@H](C)CN([C@H](C)CO)C(=O)c2cc(N(C)C)ccc2O1,i,4.8,0,-1,-0.8
CCNC(=O)C1CCCN(Cc2ccc(C(=O)OCC)cc2)CC1 (centres undefined),i,0.5,9,8,1.6
CC(C)NC(=O)N(C)C[C@@H]1Oc2ccc(NC(=O)c3ccncc3)cc2C(=O)N([C@H](C)CO)C[C@@H]1C,i,-1.5,1,7,0.4
CCC(=O)N1[C@@H](CO)[C@@H]2c3ccccc3N(S(=O)(=O)c3ccc(F)cc3)C[C@@H]21,+,-2.9,0,5,0.5
Cc1noc(C)c1NC(=O)N[C@H]1C=C[C@@H](CC(=O)Nc2ccccc2)O[C@@H]1CO,i,-0.7,1,3,1.1
O=S(=O)(c1ccc(F)cc1)N1CCCCN2[C@H](CO)[C@@H](c3ccc(C#CC4CC4)cc3)[C@H]2C1,i,5.6,-8,9,4.1
C[C@@H]1CN([C@@H](C)CO)C(=O)c2cc(C#Cc3ccccc3F)cnc2O[C@@H]1CN(C)C(=O)C1CCC1,i,-1.7,1,-2,3.6
c1nc(SSc2ncnc3nc[nH]c23)c2[nH]cnc2n1,i,8.3,-4,1,-2.8
CCCNC(=O)C1(C)CCCN(Cc2ccccc2N(C)C)C1 (centres undefined),i,2.4,4,11,2.5
CCN1[C@@H]2c3ccc(-c4cccc(OC)c4)c(=O)n3C[C@H]1[C@H](CO)[C@H]2C(=O)N(C)C,i,1.1,1,4,0.3
C[C@@H]1CN([C@@H](C)CO)C(=O)c2cccc(NC(=O)C3CCOCC3)c2O[C@H]1CN(C)C(=O)Nc1cccc2ccccc12,i,1.2,1,13,1.3
O=C(C[C@@H]1CC[C@@H]2[C@H](COC[C@H](O)CN2C(=O)c2cccnc2)O1)NCc1ccc(Cl)cc1,i,-0.3,4,2,6.7
O=C(Nc1ccc2c(c1)OCO2)c1ccc2sc([C@H]3C[C@H](O)[C@@H](CO)O3)nc2c1,i,-1.1,-8,9,-3.7
C[C@@H]1CN([C@@H](C)CO)S(=O)(=O)c2ccc(C#Cc3ccncc3)cc2O[C@@H]1CN(C)S(=O)(=O)c1ccc(F)cc1,i,-3.0,-6,-9,2.2
C[C@@H](NC(=O)C[C@H]1C[C@@H]2c3cc(NS(=O)(=O)c4ccc(F)cc4)ccc3O[C@@H]2[C@@H](CO)O1)c1ccccc1,i,2.0,-6,-18,-0.9
CC(C)CC(N)c1csc(NC(=O)Nc2ccccc2Cc2ccccc2)n1 (centres undefined),i,?,-63,-84,-21
O=C(NCc1ccccc1)[C@H]1[C@H](CO)[C@H]2Cn3c(cccc3=O)[C@@H]1N2C(=O)Cc1ccccn1,i,-1.4,1,7,-0.4
C[C@@H]1CCCCO[C@@H](CN(C)C(=O)c2ccccc2)[C@H](C)CN([C@H](C)CO)C(=O)c2cc(NS(=O)(=O)c3ccccc3)ccc2O1,i,0.7,-10,-2,3.2
Cc1ccc(S(=O)(=O)N[C@@H]2CC[C@H](CCNC(=O)C3CCOCC3)O[C@@H]2CO)cc1,i,-4.1,1,1,0.4
C[C@H](CO)N1C[C@H](C)[C@@H](CN(C)Cc2ccc(Oc3ccccc3)cc2)Oc2ccc(NC(=O)Cc3ccccc3)cc2CC1=O,i,5.0,0,-10,14

# (listing goes on)
SMILES,FGF22 binding,MLL AF4-AF9 inh,rRNA inh HTS,rRNA inh HTS OD600,rRNA inh HTS RFP
CN1C(=O)c2cc(NC(=O)c3cscn3)ccc2OC[C@H]2O[C@H](CC(=O)N3CCOCC3)CC[C@@H]21,i,-0.8,1,-1,-0.6
C[C@@H]1CN([C@H](C)CO)S(=O)(=O)c2ccc(C3=CCCC3)cc2O[C@H]1CN(C)C(=O)Cc1ccncc1,i,-0.7,-1,-2,-0.6
COc1ccc(OC)c(S(=O)(=O)CC(=O)c2cc3ccccc3oc2=O)c1,i,-5.3,10,10,-1.7
COCC(=O)N1C[C@@H](C)[C@@H](OC)CN(C)C(=O)c2cc(NC(=O)c3cc(C)on3)ccc2OC[C@@H]1C,i,-5.0,0,7,-1.8
CCCC#Cc1ccc2c(c1)O[C@H](CN(C)C(=O)CC)[C@@H](C)CN([C@@H](C)CO)S2(=O)=O,i,10,-6,-9,1.7
C[C@@H]1CCCCO[C@@H](CN(C)Cc2ccc(C(=O)O)cc2)[C@H](C)CN([C@@H](C)CO)C(=O)c2cc(NS(=O)(=O)c3ccc(F)cc3)ccc2O1,i,-2.9,0,4,-3.0
C[C@H](CO)N1C[C@H](C)[C@@H](CN(C)Cc2ccc(C(F)(F)F)cc2)Oc2c(cccc2N(C)C)C1=O,i,-13,3,-3,0.4
CC(=O)N1CCCCN2[C@@H](CO)[C@@H](c3ccc(-c4ccncc4)cc3)[C@@H]2C1,i,1.2,3,6,-4.8
O=S(=O)(N[C@@H]1CC[C@H](CCn2cc(-c3cccnc3)nn2)O[C@H]1CO)c1ccc(Cl)cc1,i,0.2,-3,-5,-0.3
C[C@H](CO)N1C[C@H](C)[C@H](CN(C)C(=O)CC2CC2)Oc2cc(-c3cncnc3)ccc2S1(=O)=O,i,-0.2,-1,-3,-3.1
CC[C@@H](C)[C@@H]1CN([C@@H](C)CN2CCC[C@H]2CN2C(N)=NC[C@H]2CC(C)C)C(=N)N1CCCC1CCCC1,i,12,-46,-77,-12
CCCCNC(=O)C1(C)CCN1C(=O)c1ccc(C(F)(F)F)nc1C (centres undefined),i,-1.7,0,7,4.2
COc1ccc(OC(=O)N(C)C[C@H]2OCc3cn(nn3)CCCC(=O)N([C@H](C)CO)C[C@H]2C)cc1,i,0.4,-1,-5,-1.6
S=C(SCc1nc(-c2ccc(Cl)cc2)no1)N1CCSCC1,i,13,4,14,-0.7
C[C@H]1CN([C@@H](C)CO)C(=O)c2cccc(NC(=O)C3CCCCC3)c2O[C@H]1CN(C)Cc1ccncc1,i,-0.7,-5,-5,-2.2
C[C@@H]1CN([C@@H](C)CO)S(=O)(=O)c2ccc(C3=CCCC3)cc2O[C@H]1CN(C)C(=O)c1ccc(F)cc1,i,2.5,3,-20,0.1
C[C@@H]1CCCCO[C@H](CN(C)C(=O)Nc2ccc3c(c2)OCO3)[C@H](C)CN([C@H](C)CO)C(=O)c2cc(NC(=O)CCC(F)(F)F)ccc2O1,i,5.3,-1,-10,-1.9
C[C@H](CO)N1C[C@H](C)[C@@H](CN(C)C(=O)Nc2ccc3c(c2)OCCO3)OCc2cnnn2CCCC1=O,i,-1.4&-1.4,-3&3,0&3,-5.5&0.0
Cc1cccc(-c2ccc([C@@H]3[C@H](CO)N4CCCCN(C(=O)c5cccnc5)C[C@@H]34)cc2)c1,i,-1.4,-2,0,0.1
